Lassa entry inh = qHTS for Inhibitors of binding or entry into cells for Lassa Virus; Lassa virus pseudotype entry inhibition, cell reporter; control for the full effect not named in the record; Potency, µM (highest dose often 37.9 µM), without a hit: top-dose activity change, negative = inhibition, usual class: inhibitors; 300,000 compounds, 1.2% hits; AID 540256, 2011; active means well fitted inhibition curve with a large enough effect; inconclusive means small, poorly fitted or top-dose-only effect, or effect the other way; inactive means flat fitted curve, though single readings scatter; tested in HEK293 cells; also: % is scaled to controls: 0 for no effect and ±100 for the full control effect; nearly all actives have a fitted effect of over 50% in size; luciferase read-out
SARS PLP yeast = qHTS of Yeast-based Assay for SARS-CoV PLP. S. cerevisiae expressing SARS-CoV PLpro, growth rescue; control for the full effect not named in the record. Potency, µM (doses to about 32.9 µM), for the others: at the top dose activity, positive = growth rescue. 330,000 compounds, 0.19% hits. AID 485353, 2010; active means well fitted rising curve with a large enough effect; inconclusive means small, poorly fitted or top-dose-only effect; inactive means no such curve, though single readings can be large or run the other way; also: 0% is about no effect; nearly all actives have a fitted effect of over 55% in size; growth read by luminescence after 48 h
Marburg entry inh = qHTS for inhibitors of binding or entry into cells for Marburg Virus. 300,000 compounds, 1.8% hits. Marburg virus pseudotyped entry inhibition, cell reporter; control for the full effect not named in the record; about a third of the inactives were read at about 46 µM. AID 540276, 2011. Potency, µM (highest dose often 37.8 µM), for the others: at the highest dose activity change, negative = inhibition, most hits filed as inhibitors; active = well fitted inhibition curve with a large enough effect; inconclusive = small, poorly fitted or top-dose-only effect, or effect the other way; inactive = flat fitted curve, though single readings scatter; tested in HEK293 cells; about a fifth of its hits are not listed in these tables; also: % is scaled to controls: 0 for no effect and ±100 for the full control effect; luciferase read-out
NS1 function inh = qHTS Assay for Inhibitors of Influenza NS1 Protein Function. S. cerevisiae slowed by influenza A NS1, growth recovery by OD600. Potency, µM (series often up to 46.1 µM), for the others: at the highest dose activity, positive = more growth. 270,000 compounds, 0.4% hits; active means well fitted rising curve with a large enough effect; inconclusive means small, poorly fitted or top-dose-only effect; inactive means no such curve, though single readings can be large or run the other way; also: nearly all actives have a fitted effect of over 50% in size
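Recovery from NS1-induced slow growth read by OD600 in budding yeast switched to galactose assay medium (pH 6.0, -URA) at 1:100 dilution. Compound 23 nl per well; the matching strain lacking NS1 serves as control.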
Cruzain noTriton = qHTS Assay for Promiscuous and Specific Inhibitors of Cruzain (without detergent); Cruzipain (Trypanosoma cruzi), P25779; Potency, µM, inactives show max response, negative = inhibition, most hits filed as inhibitors; purified cruzain, Z-FR-AMC fluorescence, no detergent; AID 1476, 2009; 200,000 compounds, 2.3% hits;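 also: plate controls were enzyme without inhibitor for no effect and buffer without enzyme for full effect; nearly all actives have a fitted effect of over 40% in size; top concentration of the series not given in the record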
Target sequence (P25779 123-467 limits assumed): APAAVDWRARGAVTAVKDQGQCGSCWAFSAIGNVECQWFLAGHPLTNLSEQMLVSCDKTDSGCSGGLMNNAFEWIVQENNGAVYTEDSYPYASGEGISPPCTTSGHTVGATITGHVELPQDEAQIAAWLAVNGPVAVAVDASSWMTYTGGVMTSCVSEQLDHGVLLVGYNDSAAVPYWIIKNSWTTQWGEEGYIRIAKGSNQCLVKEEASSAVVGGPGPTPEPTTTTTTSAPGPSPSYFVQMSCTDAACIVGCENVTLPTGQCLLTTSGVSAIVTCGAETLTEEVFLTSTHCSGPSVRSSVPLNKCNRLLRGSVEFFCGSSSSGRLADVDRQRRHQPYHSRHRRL
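Detergent-free condition (0.00005% Triton X-100) in acetate buffer pH 5.5 with DTT. 1.5 nM enzyme and compound were pre-mixed 15 min, then 2 uM Z-FR-AMC substrate added; reaction progress from fluorescence change between first and third reads (60 s).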
StopGo reporter = High Throughput Screening for Foot and Mouth Disease Virus Antivirals; 410,000 compounds, 1.2% hits; AID 1159524, 2015; Potency, µM (titrated, usually from 57.9 µM), without a hit: top-dose signal change, negative = less light; human cells with a luciferase reporter of 2A StopGo recoding; control for the full effect not named in the record; active = well fitted falling curve with a large enough effect; inconclusive = small, poorly fitted or top-dose-only effect; inactive = no such curve, though single readings can be large or run the other way; tested in HEK293T cells; also: % is scaled to controls: 0 for no effect and ±100 for the full control effect; nearly all actives have a fitted effect of over 45% in size; luciferase light after 4 h
RE007 growth inh = qHTS Assay for Inhibitors of the HIV-1 protein Vpr; 360,000 compounds, 0.21% hits; AID 651644, 2012; Potency, µM (top dose mostly 92.2 µM), for the others: at the highest dose activity change, negative = less growth; S. pombe RE007 Vpr strain, BacTiter-Glo ATP luminescence, 24 h; control for the full effect not named in the record; active = well fitted falling curve with a large enough effect; inconclusive = small, poorly fitted or top-dose-only effect; inactive = no such curve, though single readings can be large or run the other way;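 also: % is scaled to controls: 0 for no effect and ±100 for the full control effect; nearly all actives have a fitted effect of over 50% in size; the assay follows cell death caused by Vpr and the record does not say whether a fall means rescue or toxicity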
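Fission yeast RE007 carrying one integrated HIV-1 vpr copy, seeded at OD 0.01 in PMG+AL medium with 23 nL pinned compound. Grown 24 h at 30 degrees; viability read by BacTiter-Glo luminescence after 5 min.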
Cruzain inh Det = qHTS Assay for Promiscuous and Specific Inhibitors of Cruzain (with detergent); Cruzipain (Trypanosoma cruzi), P25779; purified cruzain, Z-FR-AMC fluorescence, 0.01% Triton; Potency, µM, inactives show max response, negative = inhibition, most hits filed as inhibitors; 200,000 compounds, 0.43% hits; AID 1478, 2009;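 also: plate controls were neutral wells for no effect and buffer without enzyme for full effect; nearly all actives have a fitted effect of over 40% in size; top concentration of the series not given in the record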
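Enzyme 1.5 nM, Z-FR-AMC 2 uM, NaOAc 100 mM pH 5.5, DTT 5 mM, Triton X-100 0.01%; 15 min RT compound preincubation; kinetic ex360/em450, 60 s delta.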
* marks the source's active call; other numbers are inactive results; ? = inconclusive; / = no result given; & = joins results of further samples; [ ] = another dose, or the depositor's remark. Unless noted, calls follow the shape of the dose curve; as a rule, active = well fitted curve in the direction sought with a large enough effect; inconclusive = small, poorly fitted or top-dose-only effect, or another doubt; inactive = no such curve, though single readings can be large; an effect the other way counts as inactive or inconclusive. Potency is read from the fitted curve at half-maximal effect.

SMILES | Lassa entry inh | SARS PLP yeast | Marburg entry inh | NS1 function inh | Cruzain noTriton | StopGo reporter | RE007 growth inh | Cruzain inh Det
CCc1ccccc1NC(=O)C1(C)Cc2ccccc2C(=O)O1 (configuration not stated) | 15%[46.1 µM] | / | 0%[46.1 µM] | / | -1% | -23% | / | -2.0%
CC(NC(=O)CN(C)S(=O)(=O)c1ccc(Br)s1)c1ccccc1 (configuration not stated) | -1% | 2% | 2%[46.1 µM] | -17% | / | 17% | -13% | /
CC(Oc1cccnc1[N+](=O)[O-])C(=O)N1CCc2ccccc21 (configuration not stated) | 12% | 0% | -18% | / | / | -13% | -10% | /
CNC(=S)N/N=C/c1cn(CCOc2ccc(OC)cc2)c2ccccc12 | ? | ? | ? | ? | ? | -2% | 1% | -19%
COc1ccc2c(c1)O[C@@H](c1ccc3c(c1)OCO3)[C@H](OC(=O)Nc1ccc(OC(F)F)cc1)C2=O | ? | / | -7%&-7%[14.2 µM] | / | 2% | / | / | -2.1%
CCn1c(SCC(=O)N2CCN(c3ccc(F)cc3)CC2)nnc1-c1ccncc1 | -21%[14.3 µM] | 2% | -14% | -11% | 4% | -18% | 1% | 0.9%
O=C(COc1cc(Cl)ccc1Cl)Nc1nnc(CC(=O)N2CCOCC2)s1 | 2% | -1% | 0%[46.1 µM] | 8% | 7% | -3% | 0% | 2.8%
O=C(Nc1ccc(O)c(-c2nc3ccccc3o2)c1)c1ccc(Br)cc1 | 4%[46.1 µM] | / | / | / | -2% | -11% | / | 0.5%
COc1ccc(CCNc2ncccc2C#N)cc1OC | ? | 1% | ? | -14% | / | 12% | 4% | /
COC(=O)CSc1nc2c(c(=O)n(C)c(=O)n2C)n1CCCc1ccccc1 | 8% | 1% | -2% | -19% | 1% | -13% | 18% | -3.4%
COC(=O)c1sccc1S(=O)(=O)N(CC(=O)Nc1ccc(C)cc1)c1ccccc1 | -13%[46.1 µM] | / | / | / | 8% | -6% | / | -4.5%
CCOc1ccc(CCNC(=O)Cn2nc(-c3ccc(C)cc3)ccc2=O)cc1OCC | 15%[46.1 µM] | / | / | / | ? | -23% | / | 0.5%
CC(C)CN1CCN(Cc2ccc(Oc3ncccn3)cc2)CC1CCO (configuration not stated) | / | 1% | / | 2% | / | -14% | -2% | /
Cn1c(=O)n(CCc2ccccc2)c(=O)c2c1nc1n2CCN1Cc1ccco1 | ? | -2% | ? | -73% | 4% | ? | 2% | -5.0%
COc1ccccc1C(=O)Nc1cccc(SC)c1 | 0% | -29% | 22% | -11%[9.22 µM] | -3% | 67%[activator] | ? | -4.8%
C=CCNC(=S)N1CCC(C(=O)c2ccc(OC)cc2)CC1 | 9% | -5% | -14% | 6% | 4% | / | 5% | 1.7%
CC(Cl)C(=O)Nc1ccccc1C#N (configuration not stated) | 0% | 29% | 6% | 22% | -7% | -16% | / | -2.0%
Cc1cc(-c2sccc2Br)nc(-n2cccc2)n1 | -4% | -1% | -2%[46.1 µM] | 13% | / | 0% | -2% | /
CC(C)NC(=O)N1CCC(N2CCN(Cc3ccc(F)cc3)C(=O)C2=O)CC1 | 4%[46.1 µM] | / | / | / | -2% | -15% | / | 2.0%
COc1ccccc1C1C(C(=O)c2cc3ccccc3o2)=C(O)C(=O)N1CCN(C)C (configuration not stated) | 18% | 1% | 4% | -20% | 6% | -13% | 4% | -13%

An excerpt from above in order of molar mass, rising:
SMILES | Lassa entry inh | SARS PLP yeast | Marburg entry inh | NS1 function inh | Cruzain noTriton | StopGo reporter | RE007 growth inh | Cruzain inh Det
CCc1ccccc1NC(=O)C1(C)Cc2ccccc2C(=O)O1 (configuration not stated) | 15%[46.1 µM] | / | 0%[46.1 µM] | / | -1% | -23% | / | -2.0%
Cn1c(=O)n(CCc2ccccc2)c(=O)c2c1nc1n2CCN1Cc1ccco1 | ? | -2% | ? | -73% | 4% | ? | 2% | -5.0%
CC(NC(=O)CN(C)S(=O)(=O)c1ccc(Br)s1)c1ccccc1 (configuration not stated) | -1% | 2% | 2%[46.1 µM] | -17% | / | 17% | -13% | /

(cont.)
SMILES | Lassa entry inh | SARS PLP yeast | Marburg entry inh | NS1 function inh | Cruzain noTriton | StopGo reporter | RE007 growth inh | Cruzain inh Det
COc1ccccc1NC(=S)NC(=O)CCCOc1ccc(Cl)cc1Cl | -13% | 2% | ? | 6% | ? | / | 13% | -7.6%
O=C(c1ccco1)[C@@H]1[C@@H]2C(=O)N(c3ccc(Br)cc3)C(=O)[C@@H]2C2c3ccccc3C=CN21 (some centres not stated) | 0% | -1% | 10% | 2% | 13µM* | 3% | -23% | -3.7%
CNC(=O)C(=O)NCC1OCCN1S(=O)(=O)c1ccc(OC)c(OC)c1 (configuration not stated) | 8% | 0% | 17% | 8% | / | -16% | -4% | /
O=S1(=O)CCC(NC(=S)Nc2ccccc2)C1 (configuration not stated) | 12% | 0% | -8%[14.2 µM] | 2% | / | -8% | 25% | /
COc1cc(NC(=O)COC(=O)c2cc(S(=O)(=O)N3CCOCC3)ccc2F)cc(OC)c1 | 29%[46.1 µM] | 8% | 17%[46.1 µM] | / | / | -10% | 2% | /
CCCNC(=S)NNC(=O)c1cc(C2CC2)nc2ccccc12 | / | 5% | / | -1% | / | 5% | 16% | /
O=C(CSc1nc(C(F)(F)F)cc(=O)[nH]1)NCc1ccc2c(c1)OCO2 | -6% | 2% | 0% | / | / | -22% | 4% | /
CCOc1ccc(-c2ncncc2-c2ccc(OC)cc2)c(O)c1 | -4% | -10% | ? | -37% | -13% | 0% | -9% | -6.9%
CCCn1nnnc1SCC(=O)NCc1cccs1 | 1% | -1% | 2% | 3% | -7% | 13% | -4% | 6.9%
O=c1[nH]c2cc([N+](=O)[O-])ccc2c2ccccc12 | 0% | / | -17% | / | / | -7% | 11% | /
O=C1CN(C(=O)c2ccccc2[N+](=O)[O-])C(c2ccccc2)c2cc(Br)ccc2N1 (configuration not stated) | / | -1% | / | 3% | / | -26% | -19% | /
CC(=O)N(c1ccc2oc(=O)sc2c1)S(=O)(=O)c1ccccc1 | -8% | 3% | -6% | 8% | -14% | 0% | 23% | 1.0%
COC(=O)C1=C(CS(=O)(=O)c2ccc(Cl)cc2)NC(=O)NC1c1ccc(O)c(OC)c1 (configuration not stated) | / | 0% | / | 6% | / | -9% | 6% | /
CCC(C)Nc1nnc(SCC(=O)c2c(N)n(C3CC3)c(=O)[nH]c2=O)s1 (configuration not stated) | 10%[46.1 µM] | -14% | 5%[46.1 µM] | / | / | -2% | 3% | /

A section from further up:
SMILES | Lassa entry inh | SARS PLP yeast | Marburg entry inh | NS1 function inh | Cruzain noTriton | StopGo reporter | RE007 growth inh | Cruzain inh Det
COc1ccccc1NC(=S)NC(=O)CCCOc1ccc(Cl)cc1Cl | -13% | 2% | ? | 6% | ? | / | 13% | -7.6%
O=C(c1ccco1)[C@@H]1[C@@H]2C(=O)N(c3ccc(Br)cc3)C(=O)[C@@H]2C2c3ccccc3C=CN21 (some centres not stated) | 0% | -1% | 10% | 2% | 13µM* | 3% | -23% | -3.7%
CNC(=O)C(=O)NCC1OCCN1S(=O)(=O)c1ccc(OC)c(OC)c1 (configuration not stated) | 8% | 0% | 17% | 8% | / | -16% | -4% | /
O=S1(=O)CCC(NC(=S)Nc2ccccc2)C1 (configuration not stated) | 12% | 0% | -8%[14.2 µM] | 2% | / | -8% | 25% | /
COc1cc(NC(=O)COC(=O)c2cc(S(=O)(=O)N3CCOCC3)ccc2F)cc(OC)c1 | 29%[46.1 µM] | 8% | 17%[46.1 µM] | / | / | -10% | 2% | /
CCCNC(=S)NNC(=O)c1cc(C2CC2)nc2ccccc12 | / | 5% | / | -1% | / | 5% | 16% | /
